NPYLR7 agonist – agonists of mosquito NPYLR7 receptor, primary screen, cell-based, Aedes aegypti, calcium fluorescence, mosquito biting behavior; Aedes aegypti neuropeptide Y-like receptor 7 (NPYLR7); HEK293T NPYLR7/Galpha15, GCaMP6s calcium fluorescence; activation, % at 10 µM; 270,000 compounds, 0.15% hits; AID 1259423, 2018; in the data active = activation above about 40%;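 note: 0% = vehicle and 100% = reference agonist at the receptor; some compounds past the cut are filed as inactive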
NPYLR7 agonist max-min – further read-out of NPYLR7 agonist, marked with its call; activation, %; measured here: Max-Min RFU normalised activation; some inactives read as strong as hits;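 span of the calcium signal over five minutes; 0% = vehicle and 100% = native peptide agonist; compound fluorescence can raise it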
An asterisk follows results filed as active; & = joins results of further samples. This is a subset. The share of hits here may be higher or lower than overall.

SMILES | NPYLR7 agonist | NPYLR7 agonist max-min
Cc1nc2sc3c(c2c(=O)o1)CCC(C)C3 (configuration not stated) | 9 | 6
CC(=O)Nc1ccc(S(=O)(=O)Oc2cccc(CNCCN(C)C)c2)cc1 | 12 | 14
OCCOc1ccccc1CN1CC[C@@]2(O)CCCC[C@H]2C1 | -2 | -3
O=C(c1ccon1)N1CCC(c2n[nH]c(=O)n2Cc2ccccc2)CC1 | 9 | 6
Cc1noc2c1C(c1ccc(-c3nc4ccccc4n3C)o1)CC(=O)N2 (configuration not stated) | 2 | -2
O=C(CN(CCCN1CCOCC1)S(=O)(=O)c1cccc(C(F)(F)F)c1)N(Cc1ccc2c(c1)OCO2)Cc1ccco1 | -2 | -8
Cc1sc2nc(CSc3nnc4n3CCCCC4)[nH]c(=O)c2c1C | -3 | -3
CCN(C)C(=O)C1CSCN1S(=O)(=O)/C=C/c1ccccc1 (configuration not stated) | 9 | 6
COc1cccc(Oc2cnn(-c3ccccc3)c(=O)c2Nc2cccc(C(=O)NCc3ccccn3)c2)c1 | 0 | 15
Cc1ccc(Cc2nc(CSc3nnnn3-c3ccccc3)cs2)cc1 | -21 | -22
OC(COc1ccccc1)CN(Cc1ccc(F)cc1)Cc1ccc2c(c1)OCO2 (configuration not stated) | 0 | 2
Nc1nc(-c2ccccc2)cc(C(F)(F)F)n1 | 4 | 1
O=C(NCc1ccco1)C1CC=CCC1C(=O)N1CCc2ccccc2C1 (configuration not stated) | -10 | -13
O=C(CCN(Cc1ccco1)c1nc(Cc2ccccc2)ns1)NCc1cccc(C(F)(F)F)c1 | -11 | -16
Cc1cccn2c(CNC(C)CCn3cccn3)cnc12 (configuration not stated) | 0 | 8
C/C(=N/NC(=O)CN(c1cc(C(F)(F)F)ccc1Cl)S(C)(=O)=O)c1cccc([N+](=O)[O-])c1 | 3 | 3
COc1cccc(-n2c(-c3ccc(Cl)cc3)cc(C(=O)NC3CCN(Cc4ccccc4)CC3)c2C)c1 | -2 | 4
CCOC(=O)c1c(NC(=O)c2ccc(S(=O)(=O)N3CCOCC3)cc2)sc(C)c1C | 0 | -4
COC(=O)CN1CCCN(C(=O)Nc2nc(C)cs2)CC1 | 3 | 2
O=C(CN1CC(C(=O)N2CCCCC2)Oc2ccccc21)Nc1c(F)cccc1F (configuration not stated) | 16 | 22
CNC(=O)Cc1ccc(-c2ccc(C(C)OC)cc2)cc1 (configuration not stated) | 5 | 2
O=C1CCN(c2ccc(Cl)cc2)CC1 | 1 | 0
COc1cccc(CN2C(=O)c3cccc(N)c3C2=O)c1 | 43* | 58*
Cc1cccc(C)c1Oc1ncccc1CNC(=O)C1COC(=O)N1 (configuration not stated) | 4 | 4
CCC12CC3CC(O)(C1)CC(C(=O)NCCC(=O)Nc1nccs1)(C3)C2 (configuration not stated) | 0 | -1
CC(=O)C1=C(C)C(C#N)C(=O)S1 (configuration not stated) | 4 | 4
CCCc1cc(=O)[nH]c(-n2nc(C)cc2NC(=O)c2cccc(C(F)(F)F)c2)n1 | 3 | 6
Cc1ccccc1NC(=O)N1CCN(CCCOC(c2ccc(Cl)cc2)c2ccc(Cl)cc2)CC1 | 2 | -2
O=c1nc2n(c3ccccc13)CC/C2=C\c1c[nH]c2ccccc12 | 8 | 14
CCOC(=O)C1CCN(C(=O)c2ccc(CSc3nc(-c4ccccc4)cc(N(C)CCc4ccc(OC)c(OC)c4)n3)o2)CC1 | 12 | 1
Cc1noc(C)c1CNC(C)CCc1c[nH]c2ccccc12 (configuration not stated) | 2 | -3
CCNC(=S)NN=Cc1cccs1 | 3 | 1
COc1cccc(NC(=O)N2CCN(C(c3ccccc3)c3ccc(Cl)cc3)CC2)c1 (configuration not stated) | 11 | 18
O=C(O)c1cccc(CC2CCN(C(=O)C3CCS(=O)(=O)CC3)CC2)c1 | 0 | -4
Cc1cccc(-c2nc3cccc(C)n3c2NC(C)(C)CC(C)(C)C)c1 | -5 | -3
NC(=O)C1CCN(C(=O)c2cc3c(s2)CCCCC3)CC1 | -2 | 7
CN(C)N=Cc1cc(Cl)cc([N+](=O)[O-])c1O | 0 | -1
C=CCN1CCN(C(=O)C2COc3ccccc3C2)CC1 (configuration not stated) | 6 | 3
CC(C)(C)CC(C)(C)Nc1c(-c2ccc(F)cc2)nc2ccccn12 | 11 | 9
COc1cccc(COC2CN(Cc3ccccn3)C(=O)CN(C(=O)c3c(F)cccc3Cl)C2)c1 (configuration not stated) | 4 | -7
CCCCCNC(=O)NCC1CCCS1(=O)=O (configuration not stated) | 2 | 2
Cc1cc(C)cc(-n2ccnc2S(=O)Cc2cc(C)on2)c1 (configuration not stated) | 18 | 21
CC(C)Cn1c(N2CCN(Cc3ccccc3)CC2)nc2c1c(=O)[nH]c(=O)n2C | 2 | 11
CCOC(=O)C1(CCOc2ccccc2)CCN(Cc2ccc(C)o2)CC1 | -6 | -10
C=CCN(Cc1cccnc1)C(=O)c1cc2n(n1)CCN(C(C)=O)C2 | 7 | 5
COc1ccccc1-n1c(-c2ccc(Cl)cc2)cc(C(=O)Nc2ccc(F)cc2)c1C | -2 | 10
CC(=O)N1N=C(c2ccc(Br)cc2)CC1c1ccc2nccnc2c1 (configuration not stated) | 1 | 9
CC(=O)N(CCN(C)C)Cc1cc(NC(=O)C2CCCC2)ccc1N(C)C | 17 | 16
COc1ccc(SCc2ccc(C(=O)N3C4CCC3CC(Oc3ccccc3C(C)C)C4)cc2)cc1OC (configuration not stated) | 19 | 10
Brc1ccc(Oc2nnc(-c3ccccc3)s2)cc1 | 7 | 5
Oc1ccc(N2CCN(CCOc3ccccc3)CC2)cc1 | -15 | -20
Cn1nnc2c(Nc3ccccc3Oc3ccccc3)ncnc21 | 9 | 4
C/C=C/C=C/C(=O)N1CC2C(=O)NC(=O)NC2(CCC)C1 (configuration not stated) | -11 | -14
CO[C@H]1CN(c2noc(-c3ccccc3)n2)CC[C@H]1N | -4 | -5
S=c1[nH]ncn1-c1ccccc1 | 16 | 9
O=C(Nc1ccc(N2CCCCC2)c(C(=O)NCc2ccccc2)c1)c1ccc(Cl)c(Cl)c1 | 1 | 8
Cc1cccc(C2SCC(=O)N2CC(=O)NCc2ccncc2)c1 (configuration not stated) | 10 | 16
Nc1ncnc2n[nH]c(Nc3ccc(F)cc3)c12 | 2&3 | -9&-23
CCSc1nc2c([nH]c3ccccc32)c(=O)n1-c1ccccc1 | 1 | 13
Cc1cnnn1-c1ccc2noc(-c3ccccc3)c2c1 | 9 | 8
Additional results.
SMILES | NPYLR7 agonist | NPYLR7 agonist max-min
CO[C@H]1CN(C(=O)c2cccc(-n3nnnc3C)c2)CC[C@H]1N | 11 | 7
Cc1ccc(-n2ccnc(SCc3ccccc3C)c2=O)cc1 | 3 | 2
CCC(c1nc2ccccc2c(=O)n1CC)N(CCc1ccc(Cl)cc1Cl)C(=O)COc1ccc(Cl)cc1 (configuration not stated) | -5 | 6
Cc1cccc(-c2noc(CCC(=O)N3CCCC(N(C)C)CC3)n2)c1 (configuration not stated) | 1 | 2
Cc1ccccc1OC(C)C(=O)Nn1cnnc1 (configuration not stated) | -1 | 0
O=C(CSc1nc(=O)n(CC2CCCO2)c2c1CCCC2)NC1CCCC1 (configuration not stated) | -7 | -11
COc1ccc(NC(=O)C(C)OC(=O)[C@@H]2CCCN2C(=O)c2ccccn2)cc1 (some centres not stated) | 2 | 0
COc1coc(CN2CCCC3(CC2)CN(C)C(=O)O3)cc1=O (configuration not stated) | 3 | 1
Cc1c(Br)c([N+](=O)[O-])nn1CC(=O)Nc1cc(Cl)ccc1O | -13 | -20
COc1ccc(-c2cc(C(=O)O)c3[nH]c(C)nc3n2)cc1OC | 3 | 2
Cc1ccc(C2(O)CCN(C(=O)c3c(C)[nH]c4c3C(=O)CCC4)CC2)nc1 | 1 | 1
CC(C)c1cc(=O)n(CC(=O)Nc2ccccc2)cn1 | 11 | 3
Cc1cc(C)c(S(=O)(=O)N(C)CCCC(=O)O)cc1N(C)S(=O)(=O)c1ccccc1 | 1 | 0
N#CC(NC(=O)c1ccc(Oc2ccccc2)cc1)c1ccccc1 (configuration not stated) | 12 | 4
CCN(C(=O)Cn1cnc(-c2ccc(F)cc2)cc1=O)c1ccccc1 | 9 | 3

20 entries already listed, arranged by molecular weight, largest number first:
SMILES | NPYLR7 agonist | NPYLR7 agonist max-min
CCC(c1nc2ccccc2c(=O)n1CC)N(CCc1ccc(Cl)cc1Cl)C(=O)COc1ccc(Cl)cc1 (configuration not stated) | -5 | 6
O=C(Nc1ccc(N2CCCCC2)c(C(=O)NCc2ccccc2)c1)c1ccc(Cl)c(Cl)c1 | 1 | 8
Cc1cc(C)c(S(=O)(=O)N(C)CCCC(=O)O)cc1N(C)S(=O)(=O)c1ccccc1 | 1 | 0
COc1ccc(NC(=O)C(C)OC(=O)[C@@H]2CCCN2C(=O)c2ccccn2)cc1 (some centres not stated) | 2 | 0
O=C(CSc1nc(=O)n(CC2CCCO2)c2c1CCCC2)NC1CCCC1 (configuration not stated) | -7 | -11
Cc1c(Br)c([N+](=O)[O-])nn1CC(=O)Nc1cc(Cl)ccc1O | -13 | -20
Cc1ccc(C2(O)CCN(C(=O)c3c(C)[nH]c4c3C(=O)CCC4)CC2)nc1 | 1 | 1
Cc1cccc(-c2noc(CCC(=O)N3CCCC(N(C)C)CC3)n2)c1 (configuration not stated) | 1 | 2
CCN(C(=O)Cn1cnc(-c2ccc(F)cc2)cc1=O)c1ccccc1 | 9 | 3
Cc1cccc(C2SCC(=O)N2CC(=O)NCc2ccncc2)c1 (configuration not stated) | 10 | 16
N#CC(NC(=O)c1ccc(Oc2ccccc2)cc1)c1ccccc1 (configuration not stated) | 12 | 4
Cc1ccc(-n2ccnc(SCc3ccccc3C)c2=O)cc1 | 3 | 2
CCSc1nc2c([nH]c3ccccc32)c(=O)n1-c1ccccc1 | 1 | 13
CO[C@H]1CN(C(=O)c2cccc(-n3nnnc3C)c2)CC[C@H]1N | 11 | 7
COc1ccc(-c2cc(C(=O)O)c3[nH]c(C)nc3n2)cc1OC | 3 | 2
C/C=C/C=C/C(=O)N1CC2C(=O)NC(=O)NC2(CCC)C1 (configuration not stated) | -11 | -14
CO[C@H]1CN(c2noc(-c3ccccc3)n2)CC[C@H]1N | -4 | -5
CC(C)c1cc(=O)n(CC(=O)Nc2ccccc2)cn1 | 11 | 3
Cc1ccccc1OC(C)C(=O)Nn1cnnc1 (configuration not stated) | -1 | 0
S=c1[nH]ncn1-c1ccccc1 | 16 | 9

The listing continues:
SMILES | NPYLR7 agonist | NPYLR7 agonist max-min
COc1ccc(CCN(C)C(=O)c2cc(-c3ccc([N+](=O)[O-])cc3)nn2-c2cc(C)ccc2C)cc1OC | 17 | 22
CC1CCC2(CC1)c1cnn(C(C)C)c1N=C(c1ccc(F)cc1)N2C (configuration not stated) | 2 | 1
CC(C)=CC(=O)N1CCC2(CC1)CNC(=O)C2 | 4 | 0
CCOC(=O)N1CCN(c2c(NCCN3CCCCC3C)c(=O)c2=O)CC1 (configuration not stated) | 4 | 3
CCCCC(=O)N1CCN(c2cc(Cl)nc(SCC(=O)NCCCN3CCCCC3C)n2)CC1C (configuration not stated) | 15 | 18
CCCSc1ncccc1C(=O)N1CCc2c([nH]c3ccc(OC)cc23)C1c1ccc(-c2ccccc2C(F)(F)F)o1 (configuration not stated) | -3 | -5
Cc1c(CN2CCC(O)(Cc3cc(-c4ccccc4)no3)CC2)cnn1C | -2 | -5
CC1(C)C2CC=C(C3N=C(N)Nc4nc5ccccc5n43)C1C2 (configuration not stated) | -1 | 35
CC(c1ccccc1)N(Cc1ccc(Cl)c(Cl)c1)Cc1nc(C(=O)NCCc2ccccn2)co1 (configuration not stated) | 18 | 28
CCNC(=O)Nc1ccc(N(C)C)c(CN(CC2CC2)S(C)(=O)=O)c1 | -5 | -2
C(=Nc1nccs1)N1CCOCC1 | 3 | 6
C=C(C)Cn1c(N2CCN(Cc3ccc(Cl)cc3)CC2)nc2c1c(=O)[nH]c(=O)n2C | 4 | 10
COC(=O)C(c1ccc(F)cc1Cl)C1C=CC(NC(=O)/C(C)=C/c2ccccc2)C1 (configuration not stated) | 24 | 31
Cc1c(O)cc(C(=O)NCC2CCN(C3CCOCC3)C2)cc1O (configuration not stated) | 8 | 22
O=C(NCCn1cccc1)c1cccnc1OCC(F)(F)F | 0 | 10

Looked up by compound from the list above:
SMILES | NPYLR7 agonist | NPYLR7 agonist max-min
CC1(C)C2CC=C(C3N=C(N)Nc4nc5ccccc5n43)C1C2 (configuration not stated) | -1 | 35
O=C(NCCn1cccc1)c1cccnc1OCC(F)(F)F | 0 | 10

Next part
SMILES | NPYLR7 agonist | NPYLR7 agonist max-min
Cc1cccc(CN2CCC(c3nn(C)c(=O)n3Cc3ccccc3)CC2)n1 | -1 | 4
CCC(C)Oc1cccc(NC(=O)CC(C)(C)C(=O)O)c1 (configuration not stated) | 2 | -1
Cc1cc(N2CCc3onc(C(c4ccccc4)c4ccccc4)c3C2)nc(N)n1 | 2 | -2
CC(c1cccnc1)N(C)C(=O)Nc1ccc(OCCN2CCN(C)CC2)cc1 (configuration not stated) | 4 | 3
Cc1noc(-c2cccc(F)c2)c1C(=O)NCc1ccncc1 | -7 | -6
COC(=O)C1=C(C)NC2=C(C(=O)CC(c3ccccc3)C2)C1c1ccc(O)c([N+](=O)[O-])c1 (configuration not stated) | -2 | -8
O=C(NCC1(c2ccccc2)CCC1)c1cc2cc(F)ccc2[nH]1 | 3 | 2
CNC(=O)[C@H]1C[C@]2(CCCCN(C)C2=O)N(C(=O)c2ccc3c(c2)OCCCO3)[C@H]1c1ccco1 | 5 | 12
CC(Nc1ncc(C(F)(F)F)cc1Cl)c1nncn1C (configuration not stated) | -3 | -2

Screening results: PubChem, Fisher Drug Discovery Resource Center
